# ALR H2O2 inh – inhibitors of human sulfhydryl oxidase ALR; hit rate 3.8% among 290,000; purified ALR, DTT oxidation, H2O2 HRP-luminol luminescence; P55789; inhibition, % (no concentration beside the values);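 active = mean and each replicate at 75% or more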;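 note: stock transfer was 7.5 nL into about 7.5 µL; 0% = neutral wells and 100% = wells with inactivated enzyme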
# Target sequence (P55789 whole entry, looked up): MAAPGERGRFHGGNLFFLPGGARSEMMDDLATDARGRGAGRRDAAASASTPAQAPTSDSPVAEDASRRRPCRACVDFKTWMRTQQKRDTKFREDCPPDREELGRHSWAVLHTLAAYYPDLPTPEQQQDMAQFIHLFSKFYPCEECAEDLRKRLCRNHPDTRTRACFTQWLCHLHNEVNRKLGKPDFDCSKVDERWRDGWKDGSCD
# E coli growth – blocks Escherichia coli growth; OD600 absorbance (concentration not given with the values); OD600, 23 h; stronger effect = lower value; hit rate 0.21% among 330,000; AID 1053175;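 active = OD600 absorbance below the run mean of sample wells minus 3.6 SD, in any replicate, cut at about 0.56 in these data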;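 note: stock transfer was 300 nL into about 60 µL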
# Vif TR-FRET – HIV-1 Vif–A3G interaction blockers – biochemical, TR-FRET, GST-Vif 1-94, biotin-A3G peptide, dose response retest, primary screen (AID 1117319); hit rate 0.57% among 260,000; inhibition, %, or IC50 in µM where a hit was titrated; TR-FRET GST-Vif / biotin-A3G peptide binding; higher % means a stronger effect; test concentration not given here; strong numbers were not always called active;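 active = above the screen mean plus three standard deviations and confirmed in dose response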;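 note: Vif residues 1-94 fused to GST binding biotinylated APOBEC3G peptide 110-148; 0% = full assay without inhibitor and 100% = GST in place of GST-Vif; retest series ran down from 100 µM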
# FGF22 binding – FGF22 (human) thermal shift binding | calls only at 9.99 µM | recombinant FGF22 thermal shift, SYPRO orange fluorescence; percent of sucrose octasulfate shift, DMSO zero | hit rate 1.5% among 340,000 | Q9HCT0;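 active = melting point raised past a set limit in the mean and every replicate; three in four hits are not shown here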
# Target sequence (Q9HCT0 whole entry, looked up): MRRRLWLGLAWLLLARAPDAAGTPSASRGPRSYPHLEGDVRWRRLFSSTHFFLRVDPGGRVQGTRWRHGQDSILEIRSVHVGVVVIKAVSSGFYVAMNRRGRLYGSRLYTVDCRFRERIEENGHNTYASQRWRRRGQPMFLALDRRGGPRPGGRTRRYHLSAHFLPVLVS
# rRNA inh HTS – selective bacterial rRNA inhibition in E. coli. E. coli WT GFP vs humanized-ribosome RFP mutants, fluorescence, 24 h; stronger effect = lower value; DMSO median 0, no signal -100. GFP signal change (wild-type ribosome), % (no concentration beside the values). hit rate 1.6% among 350,000. AID 720706;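 active = significant combined selectivity score with lowered wild-type GFP, culture density cut under 30%, mutant RFP and density less affected; inactive = any of these conditions unmet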; note: one replicate is shown; some compounds called inactive have numbers as strong as hits
# MLL AF4-AF9 inh – MLL-AF4/AF9 protein interaction inhibition | AID 651704 | hit rate 0.47% among 350,000 | AlphaScreen, biotin-AF4 peptide binding to FLAG-AF9 | inhibition, % at 10 µM;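 active = every replicate reaching a set inhibition limit, whatever the replicate mean, cut at about 25% in these data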;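 note: 0% = plate neutral control median and 100% = total signal loss; the record names both 10 and 1 µM as test concentration; the first replicate is given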
# HNF4A DNA FP – change in binding of human HNF4 alpha to DNA; HNF4a-FITC DNA binding, fluorescence polarization, 1 h; P41235; activity change, % at 10 µM; hit rate 0.3% among 360,000; in the data active = activity change above about 30%, passing the limit was not always enough;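 note: controls were the assay level and a saturating level of protein; the project sought stronger binding though the title names inhibitors; some compounds called inactive have numbers as strong as hits; positive values seem to mean higher polarization but the record does not say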
# Target sequence (P41235 whole entry, looked up): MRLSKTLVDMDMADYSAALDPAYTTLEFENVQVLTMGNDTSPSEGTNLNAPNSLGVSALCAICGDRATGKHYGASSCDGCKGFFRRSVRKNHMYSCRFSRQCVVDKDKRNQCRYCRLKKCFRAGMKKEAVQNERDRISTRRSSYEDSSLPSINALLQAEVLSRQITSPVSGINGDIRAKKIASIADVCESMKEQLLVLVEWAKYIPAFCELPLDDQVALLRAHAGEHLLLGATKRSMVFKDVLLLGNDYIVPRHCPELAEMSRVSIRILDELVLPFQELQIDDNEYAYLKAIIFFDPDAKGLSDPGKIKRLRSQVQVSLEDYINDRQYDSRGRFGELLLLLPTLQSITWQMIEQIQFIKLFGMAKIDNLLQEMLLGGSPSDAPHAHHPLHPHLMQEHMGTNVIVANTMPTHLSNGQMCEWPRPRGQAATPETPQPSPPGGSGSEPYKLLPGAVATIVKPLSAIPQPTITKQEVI
# rRNA inh HTS OD600 – second read-out of rRNA inh HTS, no call of its own (marks repeat the call); OD600 change, %; measured here: OD600 growth;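 optical density of the mix in the first replicate; 0 = DMSO median and -100 = no signal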
# rRNA inh HTS RFP – second read-out of rRNA inh HTS, no call of its own (marks repeat the call); RFP signal change, %; measured here: RFP humanized mutant strains;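 first replicate; 0 = DMSO median and -100 = no signal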
# An asterisk follows results filed as active; i = inactive; . = no result given; & = joins results of further samples. Only part of the results is shown; count on the stated rates, not on these rows.
SMILES,ALR H2O2 inh,E coli growth,Vif TR-FRET,FGF22 binding,rRNA inh HTS,rRNA inh HTS OD600,rRNA inh HTS RFP,MLL AF4-AF9 inh,HNF4A DNA FP
CCn1cc(/C=N\NC(=O)c2ccc3c(c2)c(C)c(C)n3Cc2ccccc2)c(C)n1,-5,.,-1%,.,.,.,.,.,-0.6
Cc1ccc(C)c(S(=O)(=O)N2CCCOC2CNC(=O)C(=O)NCCC2=CCCCC2)c1 (configuration not stated),-6,0.67,0%,.,.,.,.,.,1.4
O=C(O)CC12C[C@H]3C[C@@H](C1)CC(n1ncc(N4CCN(c5ccccc5)CC4)c(Cl)c1=O)(C3)C2,98*,0.66,.,.,.,.,.,.,5.3
Cc1noc(C)c1NC(=O)N(C)C[C@H]1Oc2ccc(NC(=O)NC(C)C)cc2CC(=O)N([C@@H](C)CO)C[C@H]1C,.,.,.,i,-4,-3,1.9,0.5,.
CN(Cc1ccccc1)C(=O)c1ccc(NC(=O)Cc2cccc(NC(=O)C3CCCN(C(=O)C4CCC4)C3)c2)cc1 (configuration not stated),3,0.72,.,i,7,-3,0.8,0.9,-1.4
Cc1ccc(NC(=S)NNC(=O)c2cccc([N+](=O)[O-])c2)cc1Cl,88*,0.67,3%,i,.,.,.,6.7,5.5
CC(=O)COc1coc(CN2CCN(c3ccc(F)cc3)CC2)cc1=O,26,0.63,.,i,10,6,0.6,1.0,-0.9
O=C(Nc1ccccc1Cl)N1CCn2c(nc3ccccc32)C1,-2,0.69,-2%,.,.,.,.,.,1.8
Cc1cc(C)c(C)c(OCCCCN2CCCCC2)c1,1,0.67,-5%,i,5,-14,-0.8,0.2,2.6
COc1ccc(C2CCCCCN2Cc2nc3ccccc3c(=O)n2CC(N)=O)cc1 (configuration not stated),2,0.7,.,i,.,.,.,0.4,2.4
COC(=O)[C@H]1C[C@H](OC(=O)NCc2ccccc2F)[C@@]2(O)CN(S(=O)(=O)c3ccc(C)cc3)CC2[C@H]1C(=O)OC (some centres not stated),.,.,2%,i,-16,-13,1.9,-2.8,-2.1
O=C(CCN1CCCCC1)NNC(=O)C12CC3CC(CC(C3)C1)C2,-2,0.72,10%,i,4,3,-1.8,-2.3,6.2
O=C(Cc1ccccc1)Nc1nnc(-c2ccco2)s1,10,0.77,3%,.,.,.,.,.,-0.2
CCOC(=O)Cc1csc(NC(=O)CSc2nc(C)cc(C)n2)n1,-12,0.68,-4%,i,-6,-19,0.8,0.7,2.6
COCC#Cc1cnc2c(c1)C(=O)N([C@H](C)CO)C[C@H](C)[C@@H](CN(C)C(=O)C1CC1)O2,.,.,.,i,3,-1,-1.6,-0.1,.
CN=C1CC(C)(C)CC(=O)/C1=C(/O)CCCN1C(=O)c2ccccc2C1=O,2,.,-2%,.,11,5,0.4,-0.2,-1.6
O=C(Cn1nnc(-c2cccs2)n1)NCc1ccco1,10,0.69,.,i,13,9,2.0,0.8,5.4
CC(C)NC(=O)N(C)C[C@H]1Oc2ccc(NC(=O)Nc3ccc(F)cc3)cc2C(=O)N([C@@H](C)CO)C[C@@H]1C,.,.,.,i,-2,5,1.1,-0.7,.
CCN(C(=O)COC(=O)/C=C/c1ccc(C)o1)c1c(N)n(Cc2ccccc2)c(=O)[nH]c1=O,.,0.68,8%,i,7,4,-1.7,-4.0,-0.5
C[C@H](CO)N1C[C@H](C)[C@@H](CN(C)CC2CCCCC2)Oc2ccc(NC(=O)CCC(F)(F)F)cc2CC1=O,.,.,.,i,1,4,0.5,-6.3,.
COc1ccc(-n2cc(CNCCCN3CCCC3=O)c(-c3ccccc3Cl)n2)cc1,-10,0.68,32%,i,1,-1,-0.6,3.4,0.1
Cc1ccc(CC(=O)Nc2ccc(Cl)cn2)cc1,-9,0.67,.,i,4,3,1.7,-6.4,2.1
CSc1nc2ccc(NC(=O)c3ccc(F)c(F)c3)cc2s1,-9,0.66,2%,i,1,-2,-0.5,1.1,-2.8
CCOc1ccc(/C=C2\SC(=S)N(C)C2=O)cc1OC,-5,0.71,-6%,i,10,5,-1.2,.,-3.3
COCC(=O)N1C[C@H]2[C@@H](c3ccccc31)[C@@H](CO)N2Cc1ccccc1F,.,.,.,i,2,0,0.9,-17,.
CCCn1c(N)c(C(=O)CSc2nnc(C3CC3)n2Cc2ccccc2)c(=O)n(C)c1=O,1,0.65,-9%,i,5,16,-2.4,2.6,-1.3
O=C(CCSc1ccc(Cl)cc1)c1cccs1,46,0.74,21%,.,.,.,.,.,-0.1
Cc1ccccc1-n1c(Cn2c(=O)sc3ccccc32)nnc1SCC(=O)N1CCCC1,-15,0.74,4%,.,0,-10,2.7,-1.7,-1.9
CCC(=O)N1N=C(c2ccc(C)o2)CC1c1ccc(Br)cc1 (configuration not stated),-8,0.67,.,.,.,.,.,.,-1.9
CCCC(=O)Nc1ccccc1NC(=O)CCC,-15,0.7,16%,.,.,.,.,.,0.5
Cc1ccccc1S(=O)(=O)N1C[C@@H](O)COC[C@@H]2O[C@@H](CC(=O)NCc3ccccc3Cl)CC[C@H]21,.,.,.,i,2,8,0.8,7.0,.
COc1ccc(C(=O)c2sc(Nc3cccc(OC)c3)c(C(=O)Nc3cccc(C)c3C)c2N)cc1,.,0.75,3%,.,.,.,.,.,0.3
O=C(Cc1ccccc1)NNC(=O)C1CCN(c2ncccn2)CC1,-16,0.67,-2%,.,13,21,6.0,-2.0,-2.1
COC(=O)[C@@]12CCCN1[C@H](c1ccc(-c3ccccc3)cc1)[C@H]1C(=O)N(C)C(=O)[C@H]12,-4,.,.,i,-8,-4,6.0,4.2,0.6
O=C(/C=C/c1cccc([N+](=O)[O-])c1)NCCSc1ccccc1,46,0.67,8%,.,.,.,.,.,-0.7
CO[C@@H]1CN(C)C(=O)c2ccc(NC(=O)C3CCC3)cc2OC[C@H](C)N(C(=O)NC(C)C)C[C@H]1C,.,.,.,i,-1,3,-1.6,-0.7,.
COCCNC(=O)C(c1ccc(O)cc1)N(C(=O)CCC(=O)Nc1nccs1)c1ccc(C)cc1 (configuration not stated),-2,0.68,4%,i,4,6,2.1,-21,-0.8
CC(C)(C)c1cc(NCCCn2ccnc2)n2ncc(-c3ccc(Cl)cc3)c2n1,-2,0.61,20%,.,.,.,.,.,1.6
N#Cc1ccc(OCC(=O)OCC(=O)N2CCc3ccccc32)cc1,.,.,.,i,-7,1,1.7,0.9,1.3
COc1ccccc1S(=O)(=O)N1[C@@H]2CNC[C@H]1C2c1ccc(-c2ccncc2)cc1 (some centres not stated),.,.,.,i,2&-4,3&4,-1.4&0.2,4.6,.
Fc1ccc2c(c1)C1OCCCC1C(c1ccccc1)N2 (configuration not stated),88*,0.64,1%,i,-18,-21,-20,5.6,0.2
COc1ccc(C(=O)OCC(=O)Nc2ncc([N+](=O)[O-])s2)cc1OC,48,0.63,5%,i,-2,-9,10,-0.7,-38
COc1ccc2c3c(n(C)c2c1)[C@@H](CO)N(Cc1nccs1)CC31CN(C(C)=O)C1,.,.,.,i,0,-1,-0.9,-15,.
O=C(NN1C(=O)C2C(C1=O)C1C=CC2C12CC2)c1cccc(Cl)c1 (configuration not stated),-4,0.64,2%,i,-1,0,-2.5,-1.9,-1.8
CCNC(=O)Nc1ccc2c(c1)C(=O)N(C)[C@H]1CC[C@H](CC(=O)NCC3CCCCC3)O[C@H]1CO2,.,.,.,i,1,-8,2.1,2.5,.
CCC(=O)N1C[C@H](C)[C@H](OC)CN(C)C(=O)c2ccc(NC(=O)CC(F)(F)F)cc2OC[C@H]1C,.,.,.,i,0,0,1.2,-20,.
O=C(Cc1cccs1)N(CC1CCCO1)C1(C(=O)NC2CCCC2)CCCCC1 (configuration not stated),.,0.73,-4%,i,.,.,.,-2.3,-2.0
CCOC(=O)CSc1nc(CC)nc2ccccc12,38,0.71,72%,i,0,-2,4.3,2.1,-1.7
COCc1cc(=O)[nH]c(Nc2nc(C)c3ccccc3n2)n1,-1,0.63,2%,.,.,.,.,.,1.1
CC(C)c1ccc(NC(=O)c2cc3c(=O)n(C)c4ccccc4c3n2C)cc1,.,0.66,-49%,i,3,-6,-6.3,-5.3,-2.3
C[C@@H]1CN([C@@H](C)CO)C(=O)c2cc(NS(=O)(=O)c3ccc(F)cc3)ccc2O[C@@H]1CN(C)C(=O)Nc1ccc(F)cc1,.,.,.,i,-2,4,-0.1,0.7,.
CCOc1ccc(-c2cc(NC(=O)Cn3ncc4c3-c3ccccc3OC4)on2)cc1OCC,2,0.71,24%,i,3,1,2.2,-0.6,0.5
CS(=O)(=O)c1ccc(C(=O)OCC(=O)NC2CCS(=O)(=O)C2)cc1[N+](=O)[O-] (configuration not stated),-6,0.68,7%,i,3,4,-3.6,3.3,-2.0
NC(=O)c1nc(N2CCOCC2)nc(N2CCOCC2)n1,-1,0.75,2%,.,4,7,-1.6,.,2.8
Cc1cc(C)c(-c2cc(C(F)(F)F)no2)c(=O)[nH]1,-7,0.69,17%,i,13,10,-4.7,2.1,0.6
CCOC(=O)N1CCC(NC(=O)c2cc(S(=O)(=O)N3CCCC3)cn2C)CC1,-6,0.63,-4%,.,.,.,.,.,2.8
Cc1ccc(S(=O)(=O)NCCCNS(=O)(=O)c2ccccc2)cc1,-2,0.69,-4%,i,-5,-4,-5.0,-0.9,-0.8
C/C(=N\NC(=O)CSCc1ccc(Cl)cc1)c1ccc2c(c1)OCCO2,2,.,23%,.,.,.,.,.,-0.5
CN1CCN(C(=O)C[C@@H]2CC[C@H]3[C@@H](COC[C@H](O)CN3C(=O)C3CCCC3)O2)CC1,.,.,.,i,6,2,32,-0.1,.
COc1cccc(C(=O)Nc2ccc3c(c2)C(=O)N(C)C[C@H](OC)[C@H](C)CN(C(=O)C2CCCC2)[C@H](C)CO3)c1,.,.,.,i,-7,-15,7.0,-5.5,.

# Quoted at random: three entries already listed
SMILES,ALR H2O2 inh,E coli growth,Vif TR-FRET,FGF22 binding,rRNA inh HTS,rRNA inh HTS OD600,rRNA inh HTS RFP,MLL AF4-AF9 inh,HNF4A DNA FP
CCOC(=O)N1CCC(NC(=O)c2cc(S(=O)(=O)N3CCCC3)cn2C)CC1,-6,0.63,-4%,.,.,.,.,.,2.8
Cc1cc(C)c(-c2cc(C(F)(F)F)no2)c(=O)[nH]1,-7,0.69,17%,i,13,10,-4.7,2.1,0.6
NC(=O)c1nc(N2CCOCC2)nc(N2CCOCC2)n1,-1,0.75,2%,.,4,7,-1.6,.,2.8

# Later entries:
SMILES,ALR H2O2 inh,E coli growth,Vif TR-FRET,FGF22 binding,rRNA inh HTS,rRNA inh HTS OD600,rRNA inh HTS RFP,MLL AF4-AF9 inh,HNF4A DNA FP
CC1=C(C)C(=O)N(c2ccccn2)C1=O,4,0.76,-3%,.,.,.,.,.,1.1
OCCN1CCN(CC(O)COCc2ccc3c(c2)OCO3)CC1 (configuration not stated),-1,0.73,1%,.,.,.,.,.,-0.4
CC1CCCCC1NC(=O)COC(=O)c1cccn1C (configuration not stated),17,0.66,.,i,6,0,-0.2,2.3,2.8
COc1ccc2oc(C(=O)OCC(=O)/C(C#N)=C(\C)N)c(C)c2c1,.,0.7,-9%,i,15,16,1.2,0.6,0.5
CCOc1ccc(N/C=C/C(=O)c2ccc(OC)c(OC)c2)cc1,-1,0.67,-3%,i,14,13,2.5,2.4,1.4
C=CCn1c(SCCC)nc2sc3c(c2c1=O)CCc1ccccc1-3,-16,0.71,.,i,-1,5,-2.7,-0.6,0.0
CN(CC(=O)Nc1ccccc1Br)C(=O)CNC(=O)c1ccc(Oc2ccccc2)cc1,-1,0.66,.,i,-38,-50,-7.5,0.1,4.0

# Compound activity deposited in PubChem by several laboratories.
